MLL AF4-AF9 inh = inhibitors of human MLL-AF4/AF9 interaction; AlphaScreen, biotin-AF4 peptide binding to FLAG-AF9; inhibition, % at 10 µM; 350,000 tested, 0.47% active; AID 651704;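 active means every replicate reaching a set inhibition limit, whatever the replicate mean, cut at about 25% in these data; inconclusive means mean inhibition reaches that limit but some replicates miss it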;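 further: 0% = plate neutral control median and 100% = total signal loss; the record names both 10 and 1 µM as test concentration; the first replicate is given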
Target sequence (P42568 whole entry, looked up): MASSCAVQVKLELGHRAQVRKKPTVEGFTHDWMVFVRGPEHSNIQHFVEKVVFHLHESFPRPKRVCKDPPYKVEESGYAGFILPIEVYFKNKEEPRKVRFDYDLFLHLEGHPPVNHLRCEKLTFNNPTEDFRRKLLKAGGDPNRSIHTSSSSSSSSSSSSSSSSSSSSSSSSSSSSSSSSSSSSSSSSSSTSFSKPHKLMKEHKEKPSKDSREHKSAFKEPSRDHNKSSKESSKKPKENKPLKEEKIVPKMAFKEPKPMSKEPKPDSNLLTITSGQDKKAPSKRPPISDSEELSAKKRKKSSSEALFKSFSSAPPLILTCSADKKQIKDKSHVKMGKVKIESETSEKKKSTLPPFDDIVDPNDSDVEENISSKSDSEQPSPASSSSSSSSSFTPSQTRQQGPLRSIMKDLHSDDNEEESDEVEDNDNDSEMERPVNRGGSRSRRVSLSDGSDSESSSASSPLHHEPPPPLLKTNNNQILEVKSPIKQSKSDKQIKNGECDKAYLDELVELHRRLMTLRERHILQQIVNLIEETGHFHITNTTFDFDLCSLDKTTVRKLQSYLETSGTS
Vif A3G = inhibitors of Vif binding to APOBEC3G peptide, primary screen, biochemical, TR-FRET, GST-Vif 1-94, biotin-A3G peptide, dose response retest (AID 1117319); TR-FRET GST-Vif / biotin-A3G peptide binding; higher % means a stronger effect; test concentration not given here; strong numbers were not always called active; inhibition, %; hits with a dose series show IC50 in µM; 260,000 tested, 0.57% active;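 active means above the screen mean plus three standard deviations and confirmed in dose response; inconclusive means results disagree or hit not tested in dose response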;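 further: Vif residues 1-94 fused to GST binding biotinylated APOBEC3G peptide 110-148; 0% = full assay without inhibitor and 100% = GST in place of GST-Vif; retest series ran down from 100 µM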
Calb FLC = affects C. albicans growth with fluconazole. 300,000 tested, 0.57% active. C. albicans CaCi-2 (fluconazole-resistant clinical isolate) + fluconazole, Alamar Blue growth, 48 h. growth inhibition, % (no concentration beside the values);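 active means most replicates above 75%; inconclusive means exactly half above 75%; inactive means most below 75%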;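 further: all wells also contain fluconazole at 8 µg/ml as a sub-toxic cotreatment; 0% = median of DMSO wells and 100% = median of geldanamycin control wells; wells of about 8 µL received 7.5 nL stock; the first replicate is given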
Ecoli rRNA inh = inhibits bacterial ribosomal RNA function over humanized ribosomes; E. coli WT GFP vs humanized-ribosome RFP mutants, fluorescence, 24 h; active compounds read low; DMSO median 0, no signal -100; GFP signal change (wild-type ribosome), % (concentration not given with the values); 350,000 tested, 1.6% active; AID 720706;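 active means significant combined selectivity score with lowered wild-type GFP, culture density cut under 30%, mutant RFP and density less affected; inactive means any of these conditions unmet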; further: one replicate is shown; some compounds called inactive have numbers as strong as hits
RanGTP-Impb inh = inhibitors of RanGTP-importin-beta interaction, primary screen, biochemical, FRET, CFP-Ran, YFP-importin-beta, homogeneous. 300,000 tested, 1.1% active. inhibition, % (no concentration beside the values). cell-free CFP-Ran/YFP-importin-beta FRET ratio;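 active means most replicates above 15%; inconclusive means exactly half above 15%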;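 further: 0% = DMSO wells and 100% = Ran loaded with GDP instead of GTP; wells of about 40 µL received 100 nL stock; the first replicate is given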
Beta apoptosis = beta cell apoptosis inhibition. INS-1E cytokine-induced death, ATP luminescence, 48 h; percent of positive-control rescue, neutral wells zero. protection from apoptosis, % (test concentration not listed). 300,000 tested, 0.8% active. AID 435005;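 active means all replicates at 75% or more, or half of them and the mean; inconclusive means half reach 75% but not the mean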;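 further: 0% = cytokine-treated negative control wells and 100% = positive control rescue; higher means more ATP so stronger rescue from cytokine killing; wells of about 40 µL received 100 nL stock; the first replicate is given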
T cruzi inh = T. cruzi replication inhibition; T. cruzi beta-gal in NIH3T3, luminescence, 90 h; inhibition, % (test concentration not listed); 300,000 tested, 1.4% active; AID 1885;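 active means mean inhibition across valid replicates above about 55%, limit read from the data; inconclusive means mean below that limit but half or more replicates reach it; inactive means mean below it, under half of replicates reach it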;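 further: signal also drops with host cell toxicity which is not excluded here; 0% = plate median of DMSO wells and 100% = zero luminescence signal; higher percent means less beta-gal luminescence so fewer parasites; stock transfer was 50 nL into about 50 µL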
A1 inh = inhibitors of the anti-apoptotic protein A1, read as caspase activation; MEF A1-2A-BIM cells, Caspase-Glo 3/7 luminescence, 3 h; percent of clofoctol response, vehicle zero; caspase activation, % (test concentration not listed); 330,000 tested, 0.066% active; AID 2462;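 active means over half of replicate activation scores above 10%, or exactly half above 10 with the replicate mean above 10; inconclusive means replicate mean below 10 yet half the replicates above 10; inactive means over half of replicates below 10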;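 further: wells of about 30 µL received 50 nL stock; many hits fall short of the cut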
Ecoli rRNA inh OD600 = second read-out of Ecoli rRNA inh, no call of its own (marks repeat the call); OD600 change, %; measured here: OD600 growth;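 optical density of the mix in the first replicate; 0 = DMSO median and -100 = no signal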
Ecoli rRNA inh RFP = recorded beside Ecoli rRNA inh, whose call it bears; RFP signal change, %; measured here: RFP humanized mutant strains;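 first replicate; 0 = DMSO median and -100 = no signal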
Starred values were filed as active, the others as inactive; ? = inconclusive; · = no result given.

Value order: MLL AF4-AF9 inh | Vif A3G | Calb FLC | Ecoli rRNA inh | Ecoli rRNA inh OD600 | Ecoli rRNA inh RFP | RanGTP-Impb inh | Beta apoptosis | T cruzi inh | A1 inh
- COC(=O)c1sc(-c2ccc(C(C)(C)C)cc2)cc1NC(=O)c1ccccc1C(=O)O
 : 0.2 | -18% | 0 | -17* | 5.7* | -0.5* | 0.3 | 3 | -13 | 0.8
- COc1ccc(CN(C(=O)CN2C(=O)NC3(CCC(C)CC3)C2=O)C(C)Cc2cccs2)cc1 (stereo not given)
 : 1.1 | -12% | · | · | · | · | · | -2 | · | 0.0
- COCCNC(=O)CN(Cc1ccccc1)C(=O)CCC(=O)Nc1nccs1
 : -1.1 | -3% | -6 | 6 | 9 | -1.2 | -6.6 | 1 | -12 | -0.4
- Cc1ccc(S(=O)(=O)Nc2nc(C)c(C(=O)NNS(=O)(=O)c3ccccc3)s2)cc1
 : 4.0 | 11% | 6 | 8 | 6 | 6.9 | 3.9 | -3 | 7 | -0.1
- CCOc1cc(C2/C(=C(\O)c3cc(C)ccc3C)C(=O)C(=O)N2CCN(C)C)ccc1O (stereo not given)
 : · | 9% | 8 | · | · | · | 4.7 | 1 | -7 | 0.1
- O=C(CCCc1ccccc1)NC1CCSC1=O (stereo not given)
 : 2.2 | -2% | -18 | 4 | -1 | 4.6 | 4.8 | -7 | 1 | 0.2
- O=C(Nc1ccccc1)Nc1cccc(-c2nnco2)c1
 : -2.0 | -3% | -14 | -6 | 7 | 0.4 | ? | · | 6 | -3.5
- CC(C)NC(=S)N1CCN(S(C)(=O)=O)CC1
 : -0.3 | · | 2 | 16 | 12 | -3.8 | 2.3 | -5 | -10 | -0.1
- Cc1cnc(C(=O)OCC(=O)NC2CCCC(C)C2C)cn1 (stereo not given)
 : · | ? | -2 | · | · | · | 1.5 | -2 | -6 | 0.1
- COc1ccc(NC(=O)CN(C)CC(=O)NCC(=O)Nc2ccc(F)cc2)cc1
 : -15 | -1% | 4 | 0 | -3 | 0.2 | 1.9 | -2 | -1 | -0.1
- O=[N+]([O-])c1cc(S(=O)(=O)N2CCCC2)ccc1NCCCN1CCOCC1
 : 1.3 | -7% | -16 | -4 | -5 | 2.4 | 0.5 | 3 | 15 | -0.4
- Cc1ccc2nc(CSc3nnc4ccccn34)cc(=O)n2c1
 : -0.8 | · | 18 | 4 | 3 | -0.9 | -4.1 | -4 | -1 | 0.2
- Cc1ccc(C(=O)N2CCCC2)cc1Br
 : · | -10% | -1 | · | · | · | 4.4 | -3 | -3 | 0.2
- COc1cc(/C=C(/C#N)c2ccc(F)cc2)ccc1Oc1ccc([N+](=O)[O-])cn1
 : -4.8 | 7% | -6 | 3 | 10 | -0.3 | 2.0 | 23 | 45 | -0.3
- Cc1ccc2oc(C(=O)N3CCN(C)C[C@@H]3C(C)C)c(C)c2c1
 : 1.4 | · | 6 | -6 | -7 | 2.3 | ? | · | -2 | -0.3
- Cc1cccc(C(=O)Nc2nnc(Cc3c[nH]c4ccccc34)s2)c1
 : · | 71% | -3 | · | · | · | 2.2 | -8 | -3 | 0.4
- Cc1ccccc1CN1CCC(CNC(=O)C2CCCN(c3ncnc4c3nc3n4CCCCC3)C2)CC1 (stereo not given)
 : -0.9 | · | 3 | -5 | 0 | -0.3 | 0.8 | 3 | 46 | 2.9
- CCN(CCCNC(=O)CN(C)S(=O)(=O)c1cccc2nsnc12)c1ccccc1
 : · | 20% | -2 | · | · | · | -0.7 | -4 | 4 | 0.6
- N#CCC(=O)Nc1ccc(C(=O)N2CCN(S(=O)(=O)c3ccc4ccccc4c3)CC2)cc1
 : 4.1 | -4% | -12 | 4 | -4 | 1.8 | 2.5 | -9 | 2 | -0.3
- CC1CCN(CCC(=O)NN)CC1
 : 1.4 | 4% | -15 | 18 | -4 | -1.3 | 0.5 | 1 | -1 | 0.3
- CCOC(=O)C1CCN(C(=O)c2c(C)oc3c2C(=O)c2ccccc2C3=O)CC1
 : 6.8 | · | -4 | -6 | -12 | -4.4 | 1.8 | 102* | 48 | -0.3
- COc1cccc(NC(=O)C2CC(=O)OC23CCOC(C)(C)C3)c1 (stereo not given)
 : · | -2% | -6 | · | · | · | 2.4 | 1 | -1 | 0.8
- COc1ccc(CCCNC(=O)C2CCC(=O)N(CCc3cccc(F)c3)C2)cc1 (stereo not given)
 : 0.7 | · | -18 | 1 | -22 | 0.7 | 1.8 | 5 | 2 | -0.3
- CNC(=O)N(O)C1N(NC(=O)Nc2ccccc2)C(=S)SC1(C)C (stereo not given)
 : ? | · | -3 | 2 | -4 | -3.3 | 5.4 | -4 | -2 | 0.7
- Cc1cccc(N(C(=O)CNC(=O)c2cccs2)C(C(=O)NC2CCCC2)c2cccnc2)c1 (stereo not given)
 : · | 24% | 19 | · | · | · | 8.2 | -8 | 6 | 0.0
- COc1cccc(-c2nc(N3CCCCC3)c3ccccc3n2)c1O
 : 20 | · | -2 | 4 | 3 | 7.9 | 0.8 | 4 | 31 | 0.7
- CCOC(=O)C1CCCN(S(=O)(=O)c2cccs2)C1 (stereo not given)
 : -10 | 10% | 12 | 1 | -1 | -5.4 | -5.5 | -1 | -1 | -0.1
- Cc1nnc(NC(=O)Oc2ccccc2)s1
 : · | 12% | 9 | · | · | · | 2.0 | -2 | -3 | -1.1
- O=C(NCCC(=O)N1CCN(c2ccccn2)CC1)c1ccc(Cl)cc1
 : 1.0 | · | · | 5 | 5 | 2.1 | · | 4 | · | 0.8
- CN=C1S/C(=C\c2ccc(SC)cc2)C(=O)N1C
 : 11 | -13% | 3 | 2 | 16 | -1.2 | 3.8 | -14 | -20 | 0.3
- O=C(NCc1ccco1)c1ccc(=O)oc1
 : · | 5% | 1 | · | · | · | 9.0 | -6 | -16 | 1.0
- Cc1ccc(NC(=O)CN2CCc3cc4c(cc3C2)OCCCO4)cc1
 : -3.3 | · | -20 | 3 | -1 | 1.6 | 1.6 | -4 | 6 | 1.6
- S=c1[nH]nc(-c2ccncc2)n1/N=C/C(Cl)=C\c1ccccc1
 : -0.9 | 6% | 7 | 8 | 40 | 11 | ? | -22 | -21 | -0.7
- COc1ccc(OC)c2[nH]c(=O)c(CCNC(=O)c3cc4ccccc4o3)cc12
 : 1.6 | -2% | 2 | -35 | -54 | 2.1 | 5.0 | 3 | 13 | 0.1
- CCOc1ccc(-n2c(Cc3cc(=O)[nH]c(=O)[nH]3)nnc2SCc2cccnc2)cc1
 : -1.3 | -2% | -5 | 3 | 12 | 19 | 1.9 | -9 | -20 | 0.7
- Cc1ccc(C)c(NS(=O)(=O)c2ccc(OCC(=O)NCc3cccnc3)cc2)c1
 : 0.5 | · | 19 | 0 | -2 | -5.8 | 4.3 | 99* | -15 | -0.7
- C/C(=N/NC(=O)c1ccccc1)C1=C(O)CC(C)(C)CC1=O
 : -3.7 | · | -12 | 1 | 3 | 0.8 | ? | -1 | 8 | 0.0
- COc1ccc(CN2CCNC(=O)C2CC(=O)N2CCCN(C(C)=O)CC2)cc1OC (stereo not given)
 : -3.9 | · | -1 | 17 | 3 | -0.8 | 5.8 | -4 | 0 | 0.6
- CC(=O)Nc1sc(C)c(C)c1C(=O)OCC(=O)N(Cc1ccccc1)C(C)C
 : -0.8 | -7% | · | 3 | 8 | 1.3 | · | 2 | · | -0.6
- CCOC(=O)CC(NC(=O)C1c2ccccc2Oc2ccccc21)c1ccc(C)cc1 (stereo not given)
 : · | -8% | 12 | · | · | · | ? | -1 | 6 | 0.1
- Oc1ccccc1/C=N/NC1=NCCCCC1
 : · | -2% | 11 | · | · | · | 0.4 | -4 | -21 | -0.3
- COc1ccccc1C1c2[nH]c3ccccc3c2CCN1Cc1ccc(NC(C)=O)s1 (stereo not given)
 : 11 | 3% | 1 | -6 | -7 | 1.3 | 2.9 | -2 | 12 | 0.1
- Cc1ccc(Cn2c(SC(C)C(N)=O)nc3ccccc3c2=O)cc1 (stereo not given)
 : -21 | 0% | -10 | 5 | 9 | -0.1 | 0.3 | -4 | -7 | 0.0
- COCCCNC(=O)CC(NS(=O)(=O)c1ccc(Cl)cc1)c1ccco1 (stereo not given)
 : · | 6% | 5 | · | · | · | 3.3 | -3 | -10 | -0.7

In the list so far, these have a halogen.
Value order: MLL AF4-AF9 inh | Vif A3G | Calb FLC | Ecoli rRNA inh | Ecoli rRNA inh OD600 | Ecoli rRNA inh RFP | RanGTP-Impb inh | Beta apoptosis | T cruzi inh | A1 inh
- COc1ccc(NC(=O)CN(C)CC(=O)NCC(=O)Nc2ccc(F)cc2)cc1
 : -15 | -1% | 4 | 0 | -3 | 0.2 | 1.9 | -2 | -1 | -0.1
- Cc1ccc(C(=O)N2CCCC2)cc1Br
 : · | -10% | -1 | · | · | · | 4.4 | -3 | -3 | 0.2
- COc1cc(/C=C(/C#N)c2ccc(F)cc2)ccc1Oc1ccc([N+](=O)[O-])cn1
 : -4.8 | 7% | -6 | 3 | 10 | -0.3 | 2.0 | 23 | 45 | -0.3
- COc1ccc(CCCNC(=O)C2CCC(=O)N(CCc3cccc(F)c3)C2)cc1 (stereo not given)
 : 0.7 | · | -18 | 1 | -22 | 0.7 | 1.8 | 5 | 2 | -0.3
- O=C(NCCC(=O)N1CCN(c2ccccn2)CC1)c1ccc(Cl)cc1
 : 1.0 | · | · | 5 | 5 | 2.1 | · | 4 | · | 0.8
- S=c1[nH]nc(-c2ccncc2)n1/N=C/C(Cl)=C\c1ccccc1
 : -0.9 | 6% | 7 | 8 | 40 | 11 | ? | -22 | -21 | -0.7
- COCCCNC(=O)CC(NS(=O)(=O)c1ccc(Cl)cc1)c1ccco1 (stereo not given)
 : · | 6% | 5 | · | · | · | 3.3 | -3 | -10 | -0.7

This is a subset (hit frequency here may not be typical).
